A647 fluor = compound autofluorescence in A647 spectral region. Compound fluorescence, A647 channel (570/671 nm), Tris buffer. max dye-equivalent concentration, M. 59,000 tested, under 10 active; active means above 1 µM dye equivalent; inconclusive means 0.1 to 1 µM; inactive means 0.1 µM or less;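 note: values scaled relative to a standard on each plate; highest value over a series up to 38 µM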
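Tris 100 mM pH 8.0; cpd + A647 stds pin-transferred; 15 min RT; CCD imager, ex 570/em 671. Output = A647-equivalent conc. per cpd conc.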
Resorufin autofl = compound fluoresces in the resorufin spectral region; 59,000 compounds, 0.04% hits; max dye-equivalent concentration, M; Compound fluorescence, resorufin region 547/598 nm, buffer; stronger effect = higher value; active = above 10 nM dye equivalent; inconclusive = 1 to 10 nM; inactive = 1 nM or less; a few of its hits are not listed in these tables; note: highest value over a series up to 38 µM
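Compounds in 100 mM Tris, pH 8.0, incubated 15 min at room temperature, then fluorescence read at 547 nm excitation/598 nm emission. Signal converted to dye-equivalent concentration via an on-plate six-point resorufin standard curve, per compound concentration.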
A488 autofl = A488 region autofluorescence; compound autofluorescence, A488 spectral region, dye equivalency; stronger effect = higher value; max dye equivalency, M; 59,000 compounds, 0.1% hits; AID 591; active = above 10 nM dye equivalent; inconclusive = 1 to 10 nM; inactive = 1 nM or less; about half of its hits are not listed in these tables;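 note: highest value over a series up to 38 µM; compound alone in buffer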
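Readout is A488 dye-equivalent concentration, calibrated by a per-plate six-point Alexa 488 series. Compounds in 100 mM Tris buffer pH 8.0 were incubated 15 min at room temperature. Plates were imaged using 480 nm excitation/540 nm emission filters.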
AID923 = qHTS Assay for Allosteric/Competitive Inhibitors of Caspase-1: Spectroscopic Profiling in AFC Spectral Region. 75,000 compounds, 1.1% hits. Potency, µM (top dose mostly 57.5 µM), without a hit: at the top dose fluorescence increase, hits mostly activators. compound fluorescence, AFC spectral region (405/520 nm); almost no hit is shown here. AID 923, 2007; active = well fitted activation curve with a large enough effect; inconclusive = small, poorly fitted or top-dose-only effect;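 note: potency is the fitted concentration of half-maximal effect; 0% is about no effect; scaled to a free AFC standard on each plate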
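Baseline compound fluorescence (AFC region, 405 nm ex/520 nm em) taken from the intercept of kinetic reads with 50 nM caspase-1 and 5 uM Ac-WEHD-AFC; normalized to an on-plate AFC standard curve; compounds titrated up to 57 uM.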
TSHR ag = TSH receptor (human) agonism; P16473; HEK293-CNG-TSHR cells (CNG channel as cAMP sensor), membrane potential dye, cAMP; Potency, µM (top dose mostly 57.1 µM), inactives show at the highest dose activation, usual class: activators; 73,000 compounds, 0.48% hits; active = well fitted activation curve of enough size with the parental cells flat; inconclusive = any curve in the parental cells; inactive = parental cells flat and receptor cells flat or falling; note: potency is the fitted concentration of half-maximal effect; % of control where 0% means no effect; weak receptor curves with flat parental cells got no call and are not listed
Target sequence (P16473 whole entry, looked up): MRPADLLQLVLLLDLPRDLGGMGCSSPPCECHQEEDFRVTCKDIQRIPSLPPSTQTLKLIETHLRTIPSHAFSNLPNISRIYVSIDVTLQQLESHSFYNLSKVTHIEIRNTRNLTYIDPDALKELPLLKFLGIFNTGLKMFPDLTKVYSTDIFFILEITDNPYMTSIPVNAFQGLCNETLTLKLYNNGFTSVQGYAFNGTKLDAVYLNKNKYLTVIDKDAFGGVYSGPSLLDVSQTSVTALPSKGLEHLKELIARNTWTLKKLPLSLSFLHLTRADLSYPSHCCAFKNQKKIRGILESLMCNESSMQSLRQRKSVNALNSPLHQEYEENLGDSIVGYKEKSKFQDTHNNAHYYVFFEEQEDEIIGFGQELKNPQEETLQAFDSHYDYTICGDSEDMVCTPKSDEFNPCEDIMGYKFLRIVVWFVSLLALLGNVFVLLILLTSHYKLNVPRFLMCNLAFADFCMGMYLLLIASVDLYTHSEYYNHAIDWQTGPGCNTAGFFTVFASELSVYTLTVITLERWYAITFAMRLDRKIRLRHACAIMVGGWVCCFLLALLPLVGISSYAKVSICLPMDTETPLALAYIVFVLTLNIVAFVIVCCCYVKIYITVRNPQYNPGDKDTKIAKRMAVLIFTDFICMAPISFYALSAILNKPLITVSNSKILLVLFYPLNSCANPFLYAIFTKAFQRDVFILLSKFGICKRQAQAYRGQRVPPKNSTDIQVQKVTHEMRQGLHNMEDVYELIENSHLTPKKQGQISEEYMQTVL
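cAMP rise detected as CNG-channel membrane depolarization by fluorescent dye (emission 590 nm), 30 min after compound, following 60 min dye loading containing 100 uM RO 20-1724 at room temperature. Cells: TSHR/CNG HEK 293, with parental CNG HEK 293 as control.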
* hit, by the source's call; i = inactive; ? = inconclusive; . = not tested or not shown; [ ] = dose if it differs, or a comment. Some of the compounds tested; rates above refer to the full screens.

SMILES	A647 fluor	Resorufin autofl	A488 autofl	AID923	TSHR ag
COC(=O)N1CCC2(CCN(C(=O)NC(C)C)CC2)CC1	1e-09	i	i	-2.0%	16%
COc1ccc(-n2c(Cc3cccn3C)nnc2SCC(=O)Nc2cccc(OC)c2)cc1	.	.	.	-0.3%	4%
COc1ccc(OC)c(NC(=O)c2c(NC(=O)c3ccco3)sc3c2CCC3)c1	1.1e-08	i	i	2.1%	-1%
C=C(C)Cn1c(CCCNC(=O)CC)nc2ccccc21	1e-09	i	i	-1.0%	1%[11.4 µM]
Cc1ccc(C(=O)Nc2nc3ccccc3s2)s1	.	.	.	1.5%	-2%
CN(C)c1ccc(C(c2nnnn2CCOC(=O)Nc2ccc(Cl)cc2)N2CCOCC2)cc1 (configuration not stated)	1e-09	i	i	5.7%	-7%
O=C(NCC1CCCO1)c1c(O)c2ccccc2[nH]c1=O (configuration not stated)	4e-08	i	i	2.5%	1%
O=C(c1ccc(N2CCCC2=O)cc1)N1CCCCCC1	6.6e-09	i	i	-3.6%	19%
COc1ccc(NC(=O)C2Cc3ccccc3CN2C(=O)c2ccccc2)cn1 (configuration not stated)	1e-09	i	?	1.0%	6%
COC(=O)c1cc(Br)c(=O)n(CCc2ccc(F)cc2)c1	3.1e-08	i	i	.	.
OCC(CO)(CO)N=Cc1c(O)ccc2ccccc12	.	.	.	1.2%	?
COc1ccc(CCNc2nc(-c3ccco3)cc(C(F)(F)F)n2)cc1OC	3.1e-08	i	i	1.5%	?
COc1ccc(CCNC(=O)COc2ccc(S(=O)(=O)N3CCOCC3)cc2)cc1OC	1.5e-08	i	i	0.9%	7%
Cc1ccc(S(=O)(=O)NC(C(=O)OCC(=O)NC(=O)c2cccn2C)C(C)C)cc1 (configuration not stated)	1e-09	i	i	0.7%	-2%
CCOc1cccc2c1OC1(C)CC2NC(=O)N1c1cccc(F)c1 (configuration not stated)	4.3e-08	i	i	-0.4%	2%[11.4 µM]
Cc1cc(C)n2nc(SCC(=O)c3ccc[nH]3)nc2n1	4.6e-08	i	i	1.2%	-4%
CCCCN(C(=O)CN1C(=O)C2CC=CCC2C1=O)c1c(N)n(CCC)c(=O)[nH]c1=O (configuration not stated)	1e-09	i	i	0.2%	1%
COc1cccc(-c2nnc(SCC(=O)Nc3cc(C)on3)o2)c1	4.4e-08	i	i	1.4%	-3%
CCc1c(C)sc(NC(=O)c2ccc(Br)o2)c1C(=O)OC	2.4e-08	i	i	17%	?
COc1ccc(N2CCn3c2nc2c3c(=O)n(CCc3ccccc3)c(=O)n2C)cc1	1e-09	i	i	0.6%	-15%

The closing six entries of the section before come first, to join the parts.
SMILES	A647 fluor	Resorufin autofl	A488 autofl	AID923	TSHR ag
CCOc1cccc2c1OC1(C)CC2NC(=O)N1c1cccc(F)c1 (configuration not stated)	4.3e-08	i	i	-0.4%	2%[11.4 µM]
Cc1cc(C)n2nc(SCC(=O)c3ccc[nH]3)nc2n1	4.6e-08	i	i	1.2%	-4%
CCCCN(C(=O)CN1C(=O)C2CC=CCC2C1=O)c1c(N)n(CCC)c(=O)[nH]c1=O (configuration not stated)	1e-09	i	i	0.2%	1%
COc1cccc(-c2nnc(SCC(=O)Nc3cc(C)on3)o2)c1	4.4e-08	i	i	1.4%	-3%
CCc1c(C)sc(NC(=O)c2ccc(Br)o2)c1C(=O)OC	2.4e-08	i	i	17%	?
COc1ccc(N2CCn3c2nc2c3c(=O)n(CCc3ccccc3)c(=O)n2C)cc1	1e-09	i	i	0.6%	-15%
Nc1nnc(Cc2ccc(Cl)c(Cl)c2)s1	1e-09	i	i	.	.
CCCCc1nc2ccccc2n1Cc1nnc2n1-c1ccccc1SC2	4e-09	i	i	-0.9%	8%
Cc1ccc(NC(=O)CSc2nnc(Cc3cccn3C)n2-c2ccc(F)cc2)cc1	.	.	.	-1.5%	1%
O=C1C2C3C=CC(C3)C2C(=O)N1c1nccs1 (configuration not stated)	1e-09	i	i	4.4%	6%
CCN(CC)c1ccc(NC(=O)CN2C(=O)CC(C)(C)S(=O)(=O)c3ccccc32)c(C)c1	.	.	.	-0.2%	-6%
C[C@@](O)(CNS(=O)(=O)c1ccccc1)c1ccccc1	1e-09	i	i	4.0%[11.5 µM]	1%[11.4 µM]
COc1cc([C@H](O)C(=O)O)ccc1O	1e-09	i	i	0.6%	.
CC(=O)NCCNc1nc(-c2ccccc2Cl)nc2ccccc12	1e-09	i	i	-0.6%	10%
CC(C)Cn1c(-c2ccccc2F)n[nH]c1=S	2.6e-08	i	i	0.4%	0%
CC(C)CC1NC(=O)N(CC(=O)c2ccc3c(c2)OCCO3)C1=O (configuration not stated)	1e-09	i	i	-0.7%	-2%
CC(=O)Nc1ccc(S(=O)(=O)NCCN2CCOCC2)cc1	.	.	.	-1.1%	-6%[11.4 µM]
CN1C(=O)c2ccc(S(=O)(=O)c3ccc(C(=O)O)cc3)cc2C1=O	1e-09	i	i	1.2%	-1%
CCN(CC)c1ccc(-n2cc3c(=O)n(C)c(=O)n(C)c3c2)cc1	1e-09	i	i	5.2%	-10%
Cc1ccccc1NC(=O)C1Cc2ccccc2C(=O)O1 (configuration not stated)	1.9e-09	i	i	0.5%	-6%
Nc1ccc(N(S(=O)(=O)c2ccccc2)S(=O)(=O)c2ccccc2)c(Cl)c1	2.2e-08	i	i	-2.3%[11.5 µM]	-2%[11.4 µM]
CC(C)=CCC/C(C)=C/CC/C(C)=N/O	.	.	.	-0.4%	0%
Cc1nc(SCC(=O)NCCc2ccccc2)n[nH]1	1.1e-08	i	i	0.7%	-2%
COc1ccc(OC)c(NC(=O)Cn2cc(C#N)c3cc(Br)ccc32)c1	1e-09	i	i	-3.1%	-6%
COc1ccc(-n2c(SCC(N)=O)nc3sc4c(c3c2=O)CCN(C)C4)cc1	9.5e-09	i	i	.	.
O=C(Nc1nnc(C2CCCO2)s1)c1cccs1 (configuration not stated)	1e-09	i	i	2.8%	1%
O=C(Cn1nnc(-c2ccccc2NC(=O)c2ccccc2F)n1)NCc1ccco1	3.7e-08	i	i	1.0%	7%
O=C1NCCCC2c3cc(O)c4ccccc4c3OC12N1CCCCC1 (configuration not stated)	4.5e-08	i	i	18%	1%
CCOC(=O)CC(=O)Nc1c(C)cc(C)cc1C	.	.	.	0.4%	3%
Cc1cccc2cc(CN(CC3CCCO3)C(=O)NC3CCCCC3)c(=O)[nH]c12 (configuration not stated)	1e-09	i	i	-1.7%	0%
C/C(N)=C(/C#N)C(=O)COC(=O)c1cc(S(=O)(=O)N2CCCCC2)ccc1C	1.6e-08	i	i	0.5%	3%
C=CCOc1nc2c(c(=O)n(C)c(=O)n2C)n1C	.	.	.	-0.5%	-1%[11.4 µM]
O=C(Cn1[nH]c(=O)c2ccccc2c1=O)N1CC=C(c2ccccc2)CC1	1.8e-08	i	i	-0.9%	2%[11.4 µM]
Cc1cccc(N(C(=O)CCC(=O)Nc2ccccn2)C(C(=O)NC(C)C)c2ccc(O)cc2)c1 (configuration not stated)	2.6e-08	i	i	0.6%	?
O=C(COc1cccc2cccnc12)NCC(F)(F)F	6e-09	i	i	2.6%	4%
O=C(c1oc(=O)c2ccccc2c1-c1ccccc1)N1CCC(O)CC1	.	.	.	2.4%	5%
Cc1ccc(C)c(NS(=O)(=O)c2ccc(OCC(=O)NCc3ccco3)cc2)c1	2e-08	i	i	-2.9%	30%
Cc1cc(C(=O)NC(C)C2CCCO2)cs1 (configuration not stated)	1.8e-08	i	i	-0.8%	-10%
COc1ccccc1CN1CC(C(=O)NC2CCCCC2)CC1=O (configuration not stated)	1e-09	i	i	0.2%	-4%
COc1ccc(Cl)cc1NC(=O)N(C)Cc1c(C)nn(C)c1C	1e-09	i	i	2.1%	4%
Cc1ccc(S(=O)(=O)N2CCCC(C(=O)NCc3cccnc3)C2)cc1Cl (configuration not stated)	2.9e-08	i	i	1.3%	4%
Cc1cccc(N2CCN(C(=O)C3CCN(c4nnc(-n5cccc5)s4)CC3)CC2C)c1 (configuration not stated)	.	.	.	-0.2%	?
N#Cc1nc(COc2ccccc2)oc1N1CCC(Cc2ccccc2)CC1	2.1e-09	i	i	-1.4%	?
O=c1cc(CO)oc(C(Nc2ccccn2)c2ccsc2)c1O (configuration not stated)	3.1e-08	i	i	2.7%	1%
O=C(O)c1cccc(S(=O)(=O)Nc2ccc3c(c2)OCO3)c1	5.4e-08	i	i	1.3%	1%
Cc1[nH]c(=O)[nH]c(=O)c1S(=O)(=O)N1c2ccc(F)cc2CCC1C (configuration not stated)	2.1e-09	i	i	0.6%	-3%
Cc1ccc2c(SCC(=O)NCc3ccco3)nc(-c3ccc(F)cc3)nc2c1	9.1e-09	i	i	0.4%	-2%
CCS(=O)(=O)N1CCN(C2CCC(C)CC2)CC1 (configuration not stated)	2.8e-08	i	i	-1.0%	0%
O=C(CN1C(=O)c2ccccc2C1=O)Nc1cccc2cccnc12	.	.	.	2.4%	10%
CS(=O)(=O)N(CC(=O)NC1CCCCC1)c1cccc(Cl)c1	1e-09	i	i	-1.8%	7%
Cc1nn(C)c(C)c1NC(=O)CSc1nc(-c2ccccc2F)nc2c1cnn2-c1ccccc1	5.7e-08	i	i	1.1%	-5%
O=C(CN1C(=O)CCC1=O)Nc1nc(-c2cccs2)cs1	2.7e-08	i	i	-0.8%	-4%
O=C(O)c1cc(-c2ccco2)nc2ccccc12	1e-09	i	i	2.6%	4%
CS(=O)(=O)N1CCC2(CCN(c3ccccc3)CC2)CC1	1e-09	i	i	-3.2%	-3%
O=C(O)c1ccc(Cl)c(S(=O)(=O)Nc2ccccc2Cl)c1	.	.	.	-3.0%	-5%
CC(NCCC(c1ccccc1)c1ccccc1)c1ccccc1 (configuration not stated)	1e-09	i	i	3.0%	.
Cc1sc2ncnc(SCC(=O)c3cccs3)c2c1C	.	.	.	2.8%	?
Cc1oc2cc3c(C(=O)OCCN(C)C)c(C)oc3cc2c1C(=O)OCCN(C)C	1e-09	i	i	0.0%	2%
COc1nc2ccccc2c(=O)n1OCC(C)C	1e-08	i	i	-1.7%	?
COc1ccc(-c2coc3cc(O)ccc3c2=O)cc1OC	3.7e-08	i	i	2.5%	1%[11.4 µM]
COc1c(Cl)cc(Cl)cc1C(=O)Nc1ccccc1N1CCN(C(C)=O)CC1	1.5e-08	i	i	-0.8%	32%
CCOc1ccc(CN2CCN(S(=O)(=O)c3ccc(NC(C)=O)cc3)CC2)cc1OC	7.9e-09	i	i	0.8%	7%
CCOc1ccccc1N(C)C(=O)C1CCN(S(=O)(=O)c2cccc3nonc23)CC1	1e-09	i	i	0.4%	0%
CCOC(=O)N1CCN(C(=O)CCc2c(C)nc3nc(C)nn3c2C)CC1	7e-09	i	i	-0.2%	-3%
COc1ccc(-c2cc(CCCC(=O)NCCc3cc(OC)ccc3OC)no2)cc1	3.3e-09	i	i	-0.4%	?
Cn1c(-c2ccc3c(c2)OCO3)cnc1NCc1cccc(Cl)c1	2.1e-08	i	i	-3.2%	?
CC1=C(c2ccc(C)cc2)S(=O)(=O)N(CC(=O)O)C1=O	.	.	.	2.1%	9%
Nc1n[nH]c2ccccc12	4.4e-08	1.1e-08M*	i	0.9%[11.5 µM]	6%[11.4 µM]

Resorufin autofl: what is marked active above.
molecule	A647 fluor	Resorufin autofl	A488 autofl
Nc1n[nH]c2ccccc12	4.4e-08	1.1e-08M*	i
